Compound activity deposited in PubChem BioAssay by National Center for Advancing Translational Sciences (NCATS).
HPGD block = qHTS Assay for Inhibitors of HPGD (15-Hydroxyprostaglandin Dehydrogenase) | 15-hydroxyprostaglandin dehydrogenase [NAD(+)] (Homo sapiens), P15428 | purified HPGD, NADH fluorescence kinetic, PGE2 substrate | Potency, µM, inactives show at the top dose activity change, negative = inhibition, hits mostly inhibitors | 150,000 compounds, 4.3% hits | AID 894, 2007; active = well fitted inhibition curve with a large enough effect (not every such curve was filed as active); inconclusive = small, poorly fitted or top-dose-only effect, or another doubt; inactive = no such curve, though single readings can be large or run the other way;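 further: top concentration of the series not given in the record; plate controls included wells without enzyme; inactives centre near -10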
Target sequence (P15428 whole entry, looked up): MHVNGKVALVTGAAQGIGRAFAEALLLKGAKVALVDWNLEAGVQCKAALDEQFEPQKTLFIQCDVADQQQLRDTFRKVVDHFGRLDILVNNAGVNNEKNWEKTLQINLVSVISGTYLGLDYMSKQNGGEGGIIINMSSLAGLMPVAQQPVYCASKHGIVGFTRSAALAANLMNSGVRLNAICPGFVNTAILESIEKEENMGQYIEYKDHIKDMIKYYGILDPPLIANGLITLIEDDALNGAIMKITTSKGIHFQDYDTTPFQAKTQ
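20 nM HPGD preincubated 15 min at room temperature with compound in 50 mM Tris-HCl pH 8, 0.01% Tween 20. Started with 1 mM NAD+ and 30 uM prostaglandin E2; NADH fluorescence (360/450 nm) read 5 times over 30-s intervals, last minus first.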
* = called active by the depositor; ? = inconclusive; & = joins results of further samples; [ ] = another dose, or the depositor's remark. On the % scale 0 is the no-effect control and ±100 the full control effect; potency means the concentration at half of the fitted maximal effect. Some of the compounds tested, so the mix of outcomes need not match the whole.

Start of the listing, in advance:
structure,HPGD block
CCCN1CCc2cccc3c2C1Cc1ccc(O)c(O)c1-3 (stereo unspecified),?
CN1C2CCC1CC(C(=O)OC(CO)c1ccccc1)C2 (stereo unspecified),-3%
CN1C(=O)N(C)C(=O)C2(Cc3ccccc3N3CCOCC32)C1=O (stereo unspecified),-12%

This part in full (from the top)
structure,HPGD block
CCCN1CCc2cccc3c2C1Cc1ccc(O)c(O)c1-3 (stereo unspecified),?
CN1C2CCC1CC(C(=O)OC(CO)c1ccccc1)C2 (stereo unspecified),-3%
CN1C(=O)N(C)C(=O)C2(Cc3ccccc3N3CCOCC32)C1=O (stereo unspecified),-12%
O=C(O)CNC(=O)[C@@H](CS)Cc1ccccc1,7.9µM*
C=C(C)C(=O)OCC1CO1 (stereo unspecified),-9%
NN=C(N)N,-29%&-14%&0%&3%
CCc1nc2ccccc2c(=O)n1-c1ccccc1[N+](=O)[O-],-9%
Cc1c2cnn(CC(=O)N3CCC4(CC3)OCCO4)c(=O)c2c(C)n1Cc1ccccc1F,-12%
N[C@@H](Cn1oc(=O)[nH]c1=O)C(=O)O,-3%&-7%
COc1ccc(Cn2c(O)c(/C=N/NC(=O)c3ccccc3)c(=O)[nH]c2=O)cc1,?
CN1C(=O)C(Cc2cccc3ccccc23)C(=O)N(C)C1=O,-23%
[O]=[Cd],-2%
CN1CCN(c2ccc(C=O)cc2)CC1,-5%
Cc1c(N=Cc2c(O)n(CCc3ccc(F)cc3)c(=O)[nH]c2=O)c(=O)n(-c2ccccc2)n1C,?
CCOP(=O)(OCC)C(C)(C)NC(=O)C(Cl)(Cl)Cl,-2%
O=C(O)[C@@H]1Cc2[nH]cnc2C(c2cccnc2)N1 (stereo partly specified),-13%
C[C@@H](Cc1cccc(C(F)(F)F)c1)NCCCc1ccccc1,-7%
COC(=O)c1ccccc1N,-17%
O=P1(Nc2cccnc2)COc2ccccc2OC1,7.1µM*
O=C(NCc1cccnc1)C(Cl)(Cl)Cl,-14%
COc1ccc(Cl)cc1NC1=NCC(C)S1 (stereo unspecified),-13%
CNP(=S)(NC)OCCOc1ccc(OC)cc1,-3%
Nc1ccccc1-c1ccccc1,-12%
CCOc1ccc2[nH]c(=O)c(CN(CCO)C3(c4nnnn4C4CCCCC4)CCCCC3)cc2c1,-16%
CC(C)N(CC[C@@](C(N)=O)(c1ccccc1)c1ccccn1)C(C)C,-4%
C[C@]1(C(=O)O)CCC[C@]2(C)c3cc(O)ccc3CC[C@@H]12,-13%
O=[N+]([O-])c1ccc(-c2[se]c3ccccc3c2I)cc1,-25%
CCCCCn1c(=O)c(C(=O)Nc2c(C)n(C)n(-c3ccccc3)c2=O)c(O)c2ccccc21,?
CN1CCN(c2ncnc3ccc(Br)cc23)CC1,-13%
CCCSc1nc(O)c(CC)c(=O)n1C(C)CC (stereo unspecified),5%
COC(=O)C1=CO[C@@H](C)[C@@H]2CN3CCc4c([nH]c5cc(OC)ccc45)[C@@H]3C[C@H]12,-20%
CC(C)=CCOc1c2occc2cc2ccc(=O)oc12,-7%&-18%
CCOC(=O)c1nc2ccccc2c(=O)n1-c1ccc(C)cc1C,3%
O=C(C1CC(c2ccc(Cl)c(Cl)c2)=NO1)N1CCC2(CC1)OCCO2 (stereo unspecified),-15%
Nc1c(C(=O)OC2CCCCC2)c2nc3ccccc3nc2n1CC1CCCO1 (stereo unspecified),?
COC(=O)/C=C\C(=O)N[C@@H]1CC[C@@]2(O)[C@H]3Cc4ccc(O)c5c4[C@@]2(CCN3CC2CC2)[C@@H]1O5,2%
O=C(c1cccn2c(=O)c3cc(Cl)ccc3nc12)N1CCC2(CC1)OCCO2,?
Clc1ccc(CO[C@@H](Cn2ccnc2)c2ccc(Cl)cc2Cl)cc1,-2%
COc1ccc(NC(=O)c2c(C)nn(Cc3ccccc3Cl)c2Cl)cc1Cl,-8%
CCC(=O)OC1(c2cccc(C)c2)CC(C)N(C)CC1C (stereo unspecified),0%
CCn1c(O)c(C=Nc2ccc(N3CCOCC3)cc2)c(=O)n(CC)c1=S,-15%
Oc1ccc2c3c1O[C@H]1c4c(c5ccccc5n4Cc4ccccc4)C[C@]4(O)[C@H](C2)N(CC2CC2)CC[C@@]314,-6%
COc1cc(/C=C/C(=O)c2c(O)n(CCc3ccccc3)c(=O)[nH]c2=O)ccc1O,-28%
Cc1ccc2c(c1)N(N=O)CCC2,-18%
CCN1C[C@]2(C)CC[C@H](OC)[C@@]34[C@H]1C1(OCO[C@@]15C[C@H](OC)C1C[C@]3(O)C5[C@H]1OC)[C@@H](O)[C@H]24,1%
COc1ccc(C2NCc3ccccc3-n3cccc32)cc1 (stereo unspecified),-5%
O=C(Oc1ccccc1)N1CCC2(CC1)CN(Cc1ccncc1)C2,-6%
O=c1c2ccccc2nc(CSc2ncnc3nc[nH]c23)n1-c1ccccc1,-3%
CC(C(N)=O)N1CC(c2ccccc2)CC1=O (stereo unspecified),0%
CC(=O)O[C@H]1[C@H]2[C@@H](OC(=O)Cc3ccccc3)[C@@H](C)C[C@]2(OC(C)=O)C(=O)/C(C)=C/[C@@H]2[C@H](CC[C@@]13CO3)C2(C)C,-4%
CCc1nc2ccccc2c(=O)n1-c1ccc2ccccc2c1,-14%
COc1ccc(N/N=C/c2c(O)n(-c3ccc(C)c(C)c3)c(=O)[nH]c2=O)cc1,?
O=C(Cc1ccccc1)OCCN1CCOCC1,0%
O=C1NC(=O)N(Cc2ccccc2)C(=O)/C1=C/N1CCCc2ccccc21,-24%
CNCCCc1ccccc1,-12%
COC(=O)c1c(C)[nH]c(C(=O)C(Cc2ccccc2)N(C)C)c1C (stereo unspecified),-6%
S=C=Nc1cccc(C2(N3CCCCC3)CCCCC2)c1,-3%
NC(CCP(=O)(O)O)C(=O)O (stereo unspecified),-2%
Cc1cccc(NC2=NCCCS2)c1C,-2%
CCOC(=O)C1=C(NC(=S)NC(=O)c2ccccc2)c2ccccc2CC12CCCC2,-12%

5 compounds from above, ordered by SMILES length, rising.
structure,HPGD block
O=P1(Nc2cccnc2)COc2ccccc2OC1,7.1µM*
CC(C(N)=O)N1CC(c2ccccc2)CC1=O (stereo unspecified),0%
CCOC(=O)c1nc2ccccc2c(=O)n1-c1ccc(C)cc1C,3%
COc1ccc(Cn2c(O)c(/C=N/NC(=O)c3ccccc3)c(=O)[nH]c2=O)cc1,?
Cc1c2cnn(CC(=O)N3CCC4(CC3)OCCO4)c(=O)c2c(C)n1Cc1ccccc1F,-12%

Reformatted as labelled records: 2 of the compounds above.
Cc1cccc(NC2=NCCCS2)c1C
  HPGD block: -2%
CN1CCN(c2ccc(C=O)cc2)CC1
  HPGD block: -5%

Next section
structure,HPGD block
COC(=O)[C@@H]1C[C@@]2(O)[C@@H](O)[C@@H](O)[C@@H](O)C[C@H]2N1Cc1cccnc1,0%
O=C(c1cc2ccccn2n1)N1CCC2(CC1)OCCO2,-11%
O=C(COc1ccc(Br)cc1)N1CCN(Cc2c[nH]c3ccccc23)CC1,5%
CCCCCCCCc1[se]c2ccccc2c1I,-4%
c1ccc(C2CC2)c(OCC2=NCCN2)c1,-10%&0%
CON(C)C(=O)Nc1ccc(Cl)cc1,-6%
CCOP(=O)(OCC)C(NC(=O)CN1C(=O)c2ccccc2S1(=O)=O)C(Cl)(Cl)Cl (stereo unspecified),-1%
COc1ccc2c(c1)[nH]c1c(C)nccc12,?
O=C(NCc1cn2ccccc2n1)c1ccccc1,?
CCOP(=O)(OCC)C(O)c1ccc(Br)cc1 (stereo unspecified),0%
CC(Cl)Cl,-9%
CC(=NCc1ccc2c(c1)OCO2)c1c(O)n(C)c(=O)n(C)c1=O,-12%
CN1CCN(c2nccc3c2ncn3C)CC1,-8%
N=C1c2ccccc2CN1NC(=O)C1CC1,-5%
CC(=O)OC1N=C(c2ccccc2)c2cc(C)ccc2NC1=O (stereo unspecified),-4%
CCOP(=O)(C(NC(=O)c1ccccc1Cl)=C(Cl)Cl)c1ccccc1 (stereo unspecified),-7%
C[C@H](O)[C@H]1CC[C@H]2[C@@H]3CCC4=CC(=O)CC[C@]4(C)[C@H]3CC[C@]12C,-7%
COc1ccccc1CN1CCCC2(CCN(C(=O)Oc3ccccc3)CC2)C1,-5%
C=COC(C)=O,-8%
O=C(CN1CCCC1=O)N1CCOCC1,-7%
S=C=S,-3%
Cc1cnn(C2CCN(C)CC2)c1N,-1%
Nc1cc(Cl)cc(Cl)c1,-10%
CCOC(=O)c1c(C)n(Cc2ccc3c(c2)OCO3)c2ccc(O)cc12,?
CCC1(CCc2ccncc2)C(=O)NC(=O)NC1=O,-8%
O=C(c1ccc(N2CC3CC(C2)c2cccc(=O)n2C3)c([N+](=O)[O-])c1)N1CCCCC1 (stereo unspecified),-13%
Nc1c([N+](=O)[O-])cc(F)c(N2CCNCC2)c1Br,-8%
ClCCCCl,-5%
COC(=O)[C@H]1C[C@@H]1[C@H](NP(=O)(c1ccccc1)c1ccccc1)c1ccccc1,-7%&-11%
C[C@@]12C=CC(=O)C=C1CCC1C2CC[C@]2(C)C(=O)CCC12 (stereo partly specified),-1%

Next structures follow.
SMILES	HPGD block
COC(=O)c1ccc(C(=O)OC)c(NC(=O)Oc2ccccc2)c1	?
COc1ccc(C[C@@H](N)c2ccc(OC)cc2)cc1	2%
ClC1=C(Cl)C2(Cl)C3C4CC(C5OC45)C3C1(Cl)C2(Cl)Cl (stereo unspecified)	-2%&-2%
NC(N)=NC(=O)c1nc(Cl)c(N)nc1N	?
O=c1[nH]c(O)c(/C=C2\C=NN=C2c2ccccc2)c(=O)[nH]1	?
Nc1ccc2c(c1)oc1ccccc12	?
Cc1cc(Br)ccc1N1C(=O)CC(=O)NC1=O	-4%
CN1CC[C@@H]2CN3CCc4cccc(c43)[C@H]2C1	?
CC(=O)c1c(O)c(C)c(O)c(Cc2c(O)c3c(c(C(=O)/C=C\c4ccccc4)c2O)OC(C)(C)C=C3)c1O	?
CC(=O)Nc1ccccc1C(=O)OCc1ccc(C(=O)c2ccccc2)cc1	25µM*
c1ccc2cc3c(cc2c1)-c1cccc2cccc-3c12	46%[activator]
CCc1ccc(CCN2CCCCC2)nc1	-6%
O=C(c1cc(-c2ccncc2)nc2ccccc12)N1CCC2(CC1)OCCO2	-3%
O=[N+]([O-])/C=C1\NCCN1Cc1ccc(Cl)nc1	-14%
Cc1ccccc1-n1c(C)nc2sccc2c1=O	-5%
O=C(c1cc(-c2cccnc2)nc2ccccc12)N1CCC2(CC1)OCCO2	-8%
CCOC(=O)C(O)(c1ccc(N)c(OC)c1)C(F)(F)F (stereo unspecified)	-2%
COc1ccc(-n2c(O)c(C(C)=NCc3ccco3)c(=O)[nH]c2=O)cc1	-15%
CC(C)Br	-3%
CC(C)(C)P(=O)(c1ccncc1)N1CCCC1 (stereo unspecified)	10%
CC(=O)OC1CC2C(C)(C)C(O)C=C[C@@]2(C)C2CC[C@]3(C)C(=CC(=O)OC3c3ccoc3)[C@]12C (stereo partly specified)	-11%
C[C@@H](Cc1ccccc1)NCCC(c1ccccc1)c1ccccc1	0%
CCn1cc(C(=O)O)c(=O)c2cc(F)c(N3CCNCC3)cc21	-23%
O=C(CN1CC(c2ccccc2)CC1=O)NCc1ccc(F)cc1 (stereo unspecified)	-4%
C=CCN=C=S	6%
Oc1ccc(Cl)c(Cl)c1	-14%
O=[N+]([O-])c1ccccc1CNCCc1ccc(F)cc1	-3%
CC(=O)N1N=C2C3CCN(CC3)C2C1c1ccc(C)cc1 (stereo unspecified)	-3%
CCCOC(=O)[C@@H]1[C@@H](C(=O)O)[C@H]2CC[C@@H]1O2	-1%
Cc1cc(Oc2ccc(C(F)(F)F)cc2[N+](=O)[O-])c2c3c(c(=O)oc2c1)CCCC3	-18%
CCCCCCC[n+]1ccc(-c2cc[n+](CCCCCCC)cc2)cc1	-4%&-3%
COc1ccccc1NC1=NCCS1	-6%
CCCN(CCC)C1CCc2ccc(O)cc2C1 (stereo unspecified)	-9%
O=C(CN1CCOCC1)c1ccc2cc[nH]c2c1	-25%
CC/C(=N\N1CCN(C)CC1)c1c(O)[nH]c(=O)[nH]c1=O	-11%
Cc1cc(NC(=O)CCC(=O)N2CCC3(CC2)OCCO3)no1	-18%
CN1CCc2nc(SCC(=O)OC(C)(C)C)c(C#N)cc2C1	-13%
ClC=CCl	-12%
O/N=C1\CCC2CN(C3CCCCC3)CC2C1 (stereo unspecified)	-10%
CCSc1nnc([C@@H](N)Cc2c[nH]c3ccccc23)o1	-14%
CCCCC/C=C\C/C=C\C/C=C\C/C=C\CCCC(=O)NCCCl	?
O=c1[nH]c(=O)n(-c2ccccc2)c(O)c1/C=C/C=Nc1ccccc1	-13%
CC(=O)Nc1ccc(OC(=O)N2CCCCC2)cc1	0%
CN(C)C1=C(C#N)C(c2ccccc2)=NP(N(C)C)(N(C)C)=N1	-3%
CC(C)CCON=O	-6%
CCCC(C)C1(CC)C(=O)NC(=O)NC1=O (stereo unspecified)	-20%
O=C(Cc1ccccc1)OC(COCc1ccccc1)CN1CCOCC1 (stereo unspecified)	-3%
CCOc1ccccc1OCC(=O)Nc1ccc(Cl)cc1C(=O)c1ccccc1	-6%
